Source: PubChem BioAssay (Broad Institute)
A1 apoptosis 2: compounds inhibiting A1, read as caspase activation; MEF A1-2A-BIM cells, caspase-Glo luminescence, 3 h; percent of clofoctol response, DMSO zero; caspase activation, % (concentration not given with the values); 24,000 tested, under 10 active; AID 2465; in the data active = caspase activation above about 5.9%;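 also: wells of about 30 µL received 50 nL stock; the first replicate is given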
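System: mouse embryonic fibroblasts co-expressing A1 and BIM (A1-2A-BIM), primed for A1 dependence; amount: 2500 cells/well; doses: 50 nL pinned compound; schedule: cells settled overnight, compound exposure 3 h at 37 °C, 5% CO2; detection: Caspase-Glo 3/7 luminescence, 1 h at room temperature; read-out: Caspase-3/7 activation, seen as rise in luminescence signal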
* marks the source's active call; other numbers are inactive results. This is a subset; rates above refer to the full screens.

SMILES	A1 apoptosis 2
COc1ccc(/C=N/NC(=O)c2ccccn2)c(OC)c1	-2.6
C[C@H](CO)N1C[C@H](C)[C@@H](CN(C)Cc2ccc3c(c2)OCCN3C)OCc2cn(nn2)CCCC1=O	0.7
COc1ccc(-c2cnc3c(c2)C(=O)N([C@H](C)CO)C[C@H](C)[C@H](CN(C)C)O3)cc1	-1.1
C[C@@H]1CCCCO[C@H](CN(C)C(=O)CCC(F)(F)F)[C@H](C)CN([C@@H](C)CO)C(=O)c2cc(NS(=O)(=O)c3ccc(Cl)cc3)ccc2O1	0.0
C[C@@H]1CCCCO[C@@H](CN(C)S(=O)(=O)c2cn(C)cn2)[C@@H](C)CN([C@@H](C)CO)C(=O)c2cc(NC(=O)Nc3ccccc3)ccc2O1	1.2
C[C@H]1CN([C@@H](C)CO)C(=O)c2cccc(NC(=O)c3ccncc3)c2O[C@H]1CN(C)CC1CC1	-0.5
Cc1ccc(S(=O)(=O)Nc2ccc3c(c2)C(=O)N([C@H](C)CO)C[C@H](C)[C@H](CN(C)C(=O)CCCN(C)C)OCCCC[C@@H](C)O3)cc1	0.7
C[C@H]1CCCCO[C@H](CN(C)C(=O)NC2CCCCC2)[C@@H](C)CN([C@@H](C)CO)C(=O)c2cc(NC(=O)c3ccccc3)ccc2O1	0.6
COc1ccc(S(=O)(=O)N(C)C[C@H]2Oc3c(NS(=O)(=O)c4c(C)noc4C)cccc3C(=O)N([C@@H](C)CO)C[C@H]2C)cc1	0.9
C[C@@H]1CN([C@@H](C)CO)C(=O)c2cccc(NC(=O)c3nc4ccccc4s3)c2O[C@@H]1CN(C)C(=O)Nc1ccc2c(c1)OCO2	-1.1
C[C@H]1CCCCO[C@H](CN(C)C(=O)Cc2ccccc2)[C@@H](C)CN([C@@H](C)CO)C(=O)c2cc(NC(=O)c3ccccc3)ccc2O1	-1.5
COC(=O)CCCCCCC(=O)Nc1ccc(C2OC(CSc3nc4ccccc4s3)CC(c3ccccc3)O2)cc1 (stereo not drawn)	0.6
C[C@@H]1CN([C@@H](C)CO)C(=O)c2cc(NS(=O)(=O)c3ccccc3)ccc2O[C@@H](C)CCCCO[C@H]1CN(C)C(=O)c1ccccc1	-1.8
Cc1noc(C)c1S(=O)(=O)Nc1ccc2c(c1)C(=O)N([C@H](C)CO)C[C@H](C)[C@@H](CN(C)C)OCCCC[C@H](C)O2	-0.8
C[C@@H]1CCCCO[C@H](CN(C)C)[C@H](C)CN([C@@H](C)CO)C(=O)c2cc(NS(=O)(=O)c3ccc(Cl)cc3)ccc2O1	0.6
O=C(C1=C[C@@H](C2CC2)C[C@@H](OCc2ccc(CO)cc2)O1)N1CCN(Cc2ccccc2)CC1	1.5
COc1ccc(S(=O)(=O)Nc2cccc3c2O[C@H](CN(C)C(=O)Nc2ccc(C(F)(F)F)cc2)[C@H](C)CN([C@H](C)CO)C3=O)cc1	-0.3
O=S(=O)(N[C@@H]1CCCN(Cc2cccc(OCCO)c2)C1)c1ccc2ccccc2c1	0.7
C[C@H]1CN([C@@H](C)CO)C(=O)Cc2cc(NC(=O)Cc3ccccc3)ccc2O[C@H]1CN(C)Cc1ccc(C(=O)O)cc1	0.9
C[C@@H]1CCCCO[C@H](CN(C)S(=O)(=O)c2cccs2)[C@@H](C)CN([C@@H](C)CO)C(=O)c2cc(NC(=O)Nc3cccc4ccccc34)ccc2O1	0.7
C[C@H]1CCCCO[C@H](CN(C)C(=O)Nc2ccc(C(F)(F)F)cc2)[C@@H](C)CN([C@@H](C)CO)C(=O)c2cc(NC(=O)Nc3ccc(F)cc3)ccc2O1	-1.2
CC(C)NC(=O)N(C)C[C@@H]1Oc2ccc(NC(=O)c3ccncc3)cc2CC(=O)N([C@H](C)CO)C[C@H]1C	0.0
CO[C@H]1O[C@H](CO)[C@@H](OC(=O)Nc2ccc3c(c2)OCO3)[C@H](OC(=O)Nc2ccc3c(c2)OCO3)[C@@H]1OC(=O)Nc1ccc2c(c1)OCO2	0.7
C[C@H]1CN([C@@H](C)CO)C(=O)Cc2cc(NS(C)(=O)=O)ccc2O[C@H]1CN(C)Cc1ccc(Cl)c(Cl)c1	-1.4
Cc1noc(C)c1S(=O)(=O)Nc1ccc2c(c1)C(=O)N([C@@H](C)CO)C[C@H](C)[C@@H](CN(C)Cc1ccncc1)O2	0.0

Brought forward from above: 6 entries, then new ones.
SMILES	A1 apoptosis 2
C[C@@H]1CCCCO[C@H](CN(C)S(=O)(=O)c2cccs2)[C@@H](C)CN([C@@H](C)CO)C(=O)c2cc(NC(=O)Nc3cccc4ccccc34)ccc2O1	0.7
C[C@H]1CCCCO[C@H](CN(C)C(=O)Nc2ccc(C(F)(F)F)cc2)[C@@H](C)CN([C@@H](C)CO)C(=O)c2cc(NC(=O)Nc3ccc(F)cc3)ccc2O1	-1.2
CC(C)NC(=O)N(C)C[C@@H]1Oc2ccc(NC(=O)c3ccncc3)cc2CC(=O)N([C@H](C)CO)C[C@H]1C	0.0
CO[C@H]1O[C@H](CO)[C@@H](OC(=O)Nc2ccc3c(c2)OCO3)[C@H](OC(=O)Nc2ccc3c(c2)OCO3)[C@@H]1OC(=O)Nc1ccc2c(c1)OCO2	0.7
C[C@H]1CN([C@@H](C)CO)C(=O)Cc2cc(NS(C)(=O)=O)ccc2O[C@H]1CN(C)Cc1ccc(Cl)c(Cl)c1	-1.4
Cc1noc(C)c1S(=O)(=O)Nc1ccc2c(c1)C(=O)N([C@@H](C)CO)C[C@H](C)[C@@H](CN(C)Cc1ccncc1)O2	0.0
COc1ccc(S(=O)(=O)Nc2cccc3c2O[C@@H](CN(C)CC2CC2)[C@@H](C)CN([C@@H](C)CO)C3=O)cc1	-0.2
C[C@@H]1CN([C@H](C)CO)C(=O)c2cc(NC(=O)CCC(F)(F)F)ccc2O[C@H]1CN(C)Cc1ccncc1	0.6
C[C@H]1CCCCO[C@H](CN(C)S(=O)(=O)c2cccs2)[C@@H](C)CN([C@@H](C)CO)C(=O)c2cc(NS(=O)(=O)c3cn(C)cn3)ccc2O1	0.3
C[C@H]1CN([C@@H](C)CO)C(=O)Cc2cc(NC(=O)Cc3cn(C)c4ccccc34)ccc2O[C@@H]1CN(C)S(=O)(=O)c1cccs1	-0.3
C[C@@H]1CN([C@@H](C)CO)C(=O)c2cccc(NC(=O)Nc3ccc(F)cc3)c2O[C@@H]1CN(C)S(=O)(=O)c1ccccc1	-0.5
CC1=C2[C@@H](c3ccccc3)OB(O)C[C@@H]2n2c(=O)n(-c3ccccc3)c(=O)n2C1	-1.2
Cc1ccc(S(=O)(=O)N(C)C[C@@H]2Oc3ccc(NS(=O)(=O)c4cn(C)cn4)cc3C(=O)N([C@@H](C)CO)C[C@H]2C)cc1	0.3
CCCN(C)C[C@H]1OCCCC[C@@H](C)Oc2ccc(NS(=O)(=O)c3ccc(C)cc3)cc2C(=O)N([C@H](C)CO)C[C@@H]1C	-1.1
C[C@H]1CN([C@@H](C)CO)C(=O)c2cc(NS(=O)(=O)c3ccc(F)cc3)ccc2O[C@@H]1CN(C)Cc1ccc(-c2ccccc2)cc1	-0.2
CCCC(O)C#Cc1cnc2c(c1)C(=O)N([C@H](C)CO)C[C@H](C)[C@H](CN(C)Cc1cccc(C(F)(F)F)c1)O2 (stereo partly drawn)	0.8
C[C@H](CO)N1C[C@H](C)[C@H](CN(C)C(=O)Nc2ccccc2)OCCCC[C@H](C)Oc2ccc(NC(=O)Nc3ccc(C(F)(F)F)cc3)cc2C1=O	1.5
C[C@@H]1CN([C@@H](C)CO)C(=O)c2cccc(NC(=O)NC3CCCCC3)c2O[C@@H]1CN(C)C(=O)Nc1ccc2c(c1)OCO2	-1.1
Cc1noc(C)c1S(=O)(=O)N(C)C[C@H]1OCCCC[C@H](C)Oc2ccc(NC(=O)CCCN(C)C)cc2C(=O)N([C@@H](C)CO)C[C@@H]1C	-0.9
C[C@@H]1CN([C@@H](C)CO)C(=O)Cc2cc(NC(=O)Nc3cccc4ccccc34)ccc2O[C@@H]1CN(C)C(=O)Nc1ccc(C(F)(F)F)cc1	0.8
C[C@H](CO)N1C[C@H](C)[C@H](CN(C)S(=O)(=O)c2ccc(Cl)cc2)Oc2ccc(NC(=O)Nc3cccc4ccccc34)cc2C1=O	-0.8
C[C@@H]1CN([C@H](C)CO)C(=O)Cc2cc(NC(=O)C3CC3)ccc2O[C@@H]1CN(C)Cc1ccc(-c2ccccc2)cc1	0.5
C[C@@H]1CN([C@@H](C)CO)C(=O)Cc2cc(NC(=O)Cc3ccccc3)ccc2O[C@@H]1CN(C)S(=O)(=O)c1ccccc1	0.4
C[C@H](CO)N1C[C@H](C)[C@H](CN(C)C(=O)Nc2ccc3c(c2)OCO3)Oc2c(NC(=O)C3CCOCC3)cccc2C1=O	-0.2
COc1ccc(S(=O)(=O)Nc2cccc3c2O[C@@H](CN(C)S(=O)(=O)c2ccc(F)cc2)[C@H](C)CN([C@@H](C)CO)C3=O)cc1	-1.5
Cc1noc(C)c1NC(=O)N(C)C[C@@H]1Oc2c(NC(=O)C3CC3)cccc2C(=O)N([C@@H](C)CO)C[C@@H]1C	0.1
COc1ccc(NC(=O)Nc2cccc3c2O[C@@H](CN(C)S(C)(=O)=O)[C@H](C)CN([C@H](C)CO)C3=O)cc1	-0.1
C[C@@H]1CN([C@H](C)CO)C(=O)c2cccc(NS(C)(=O)=O)c2O[C@@H]1CN(C)C(=O)Nc1ccc(C(F)(F)F)cc1	0.2
C[C@@H]1CN([C@H](C)CO)C(=O)c2cccc(NS(=O)(=O)c3cccs3)c2O[C@@H]1CN(C)Cc1ccc(C(=O)O)cc1	0.3
C[C@H](CO)N1C[C@H](C)[C@H](CN(C)Cc2ccccc2)Oc2ccc(NC(=O)CCCCCC(=O)Nc3ccccc3N)cc2CC1=O	-0.1
C[C@@H]1C=C(C(=O)N2CCN(Cc3ccc4c(c3)OCO4)CC2)O[C@H](OCc2ccc(CO)cc2)C1	-0.8

Some of these compounds in order of formula weight, high to low:
SMILES	A1 apoptosis 2
C[C@@H]1CN([C@@H](C)CO)C(=O)Cc2cc(NC(=O)Nc3cccc4ccccc34)ccc2O[C@@H]1CN(C)C(=O)Nc1ccc(C(F)(F)F)cc1	0.8
C[C@@H]1CN([C@@H](C)CO)C(=O)Cc2cc(NC(=O)Cc3ccccc3)ccc2O[C@@H]1CN(C)S(=O)(=O)c1ccccc1	0.4
C[C@@H]1CN([C@H](C)CO)C(=O)c2cccc(NS(C)(=O)=O)c2O[C@@H]1CN(C)C(=O)Nc1ccc(C(F)(F)F)cc1	0.2

Later entries.
SMILES	A1 apoptosis 2
COc1ccc(CN(C)C[C@H]2OCCCC[C@@H](C)Oc3ccc(NC(=O)Nc4c(C)noc4C)cc3C(=O)N([C@H](C)CO)C[C@@H]2C)cc1	-1.0
C[C@H]1CN([C@@H](C)CO)C(=O)c2cc(NC(=O)Nc3ccc(F)cc3)ccc2O[C@H]1CN(C)C(=O)Nc1ccc2c(c1)OCO2	-1.2
Cc1noc(C)c1S(=O)(=O)N(C)C[C@H]1Oc2ccc(NC(=O)Nc3ccc(C(F)(F)F)cc3)cc2CC(=O)N([C@H](C)CO)C[C@H]1C	0.1
C[C@@H]1CN([C@@H](C)CO)C(=O)Cc2cc(NC(=O)CCN3CCOCC3)ccc2O[C@H]1CN(C)CC1CC1	-0.2
Cc1c(NC(=O)/C(C#N)=C/c2ccc(Cl)cc2)c(=O)n(-c2ccccc2)n1C	1.3
C[C@H]1CN([C@@H](C)CO)C(=O)c2cccc(NC(=O)Nc3ccc(C(F)(F)F)cc3)c2O[C@@H]1CN(C)Cc1ccncc1	-0.8
C[C@H](CO)N1C[C@H](C)[C@@H](CN(C)Cc2ccncc2)OCCCC[C@H](C)Oc2ccc(NC(=O)Nc3ccccc3)cc2C1=O	1.2
CC(C)=CCC[C@H](C)C/C=N/NC(=O)c1cccc(C(=O)NO)c1	1.6
C[C@H]1CN([C@@H](C)CO)C(=O)c2cc(NS(=O)(=O)c3ccc(Cl)cc3)ccc2O[C@@H]1CN(C)S(=O)(=O)c1cn(C)cn1	0.8
C[C@@H]1CCCCO[C@H](CN(C)C(=O)CCCN(C)C)[C@@H](C)CN([C@H](C)CO)C(=O)c2cc(NC(=O)Cc3ccccc3)ccc2O1	2.3
C[C@H](CO)N1C[C@H](C)[C@H](CN(C)Cc2ccc(C(F)(F)F)cc2)Oc2c(NS(=O)(=O)c3ccc(Cl)cc3)cccc2C1=O	0.5
O=C(CCCCC(=O)NN=C1CCCCCC1)NO	0.3
C[C@@H]1CN([C@@H](C)CO)C(=O)c2cccc(NS(C)(=O)=O)c2O[C@@H]1CN(C)C(=O)Nc1ccccc1	0.9
COc1ccc(CN(C)C[C@H]2Oc3ccc(NC(=O)CCCCCC(=O)Nc4ccccc4N)cc3CC(=O)N([C@H](C)CO)C[C@H]2C)cc1	1.2
Cc1ccc(CN(C)C[C@H]2OCc3cnnn3CCCC(=O)N([C@@H](C)CO)C[C@@H]2C)cc1	-0.2
COC(=O)CCCCCCC(=O)N/N=C/c1ccc(O)c2ccccc12	0.0
CCCN(C)C[C@@H]1OCCCC[C@@H](C)Oc2ccc(NC(=O)Nc3ccccc3)cc2C(=O)N([C@H](C)CO)C[C@@H]1C	0.6
O=C1CSC(c2cccc([N+](=O)[O-])c2)N1c1ccccc1 (stereo not drawn)	-0.2
C[C@@H]1CN([C@@H](C)CO)C(=O)c2cc(NC(=O)CCC(F)(F)F)ccc2O[C@@H](C)CCCCO[C@H]1CN(C)C(=O)Nc1ccccc1	-0.3
C[C@H]1CN([C@@H](C)CO)C(=O)c2cccc(NC(=O)C3CC3)c2O[C@@H]1CN(C)C(=O)NC1CCCCC1	0.0
COc1ccc(S(=O)(=O)Nc2ccc3c(c2)C(=O)N([C@H](C)CO)C[C@@H](C)[C@@H](CN(C)S(=O)(=O)c2cn(C)cn2)OCCCC[C@H](C)O3)cc1	0.3
COc1ccc(S(=O)(=O)Nc2cccc3c2O[C@@H](CN(C)C(=O)Nc2c(C)noc2C)[C@@H](C)CN([C@H](C)CO)C3=O)cc1	0.3
